Screening results (PubChem BioAssay)
CDC25B CDK2 inh: human CDC25B-CDK2/CyclinA binding inhibition | z-score (concentration not given with the values) | 94,000 tested, 0.72% active | P30305+P24941 | HTRF CDC25B-CDK2/CyclinA binding, anti-His/anti-Flag; active compounds read high;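 also: score is relative to mean and SD of negative controls; strong numbers were not always called active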
TAR Tat displ: HIV-1 TAR-Tat binding disruption. HIV-1 TAR RNA, Tat peptide displacement FRET; active compounds read high. z-score (test concentration not listed). 100,000 tested, 0.6% active;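 also: score is relative to mean and SD of negative controls; some compounds called inactive have numbers as strong as hits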
* hit, by the source's call; . = not tested or not shown.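 The calls were made as follows: active = z-score from 3 up in half or more of its runs; inactive = the rest.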

cpd | smiles | TAR Tat displ | CDC25B CDK2 inh
1 | COc1ccc(OC)c(C2=NS(=O)(=O)N(C)C(C(=O)N3CCOCC3)=C2)c1 | 1.2 | -2
2 | COc1ccc(Br)c(C2Oc3nc(SC)nnc3-c3ccccc3N2C(C)=O)c1 (configuration not stated) | 0.04 | -0.04
3 | COCCNC(=O)C1=C(C)C(=O)OC12CCN(S(=O)(=O)c1cccs1)CC2 | 0.64 | .
4 | COc1cccc(C(=O)/C=c2\[nH]c(=O)/c(=C\c3ccccc3)s2)c1 | . | -0.77
5 | O=C1CCc2cc(S(=O)(=O)N3CCN(S(=O)(=O)c4ccc(F)cc4)CC3)cc3c2N1CC3 | 0.1 | .
6 | O=C(Nc1cc(F)ccc1F)N1CC=C(c2c[nH]c3ccccc23)CC1 | -6.2 | .
7 | O=C(NC(Cc1cc(=O)[nH]c2ccccc12)C(=O)O)c1ccc(Cl)cc1 (configuration not stated) | 1.9 | .
8 | CCn1cc(CN(C)C(=O)c2cnn3c(C(F)F)cc(-c4ccccc4)nc23)c(C)n1 | -0.04 | -1.6
9 | CCc1cccc(C)c1NS(=O)(=O)c1ccc(-c2cc(C)no2)s1 | 0.68 | .
10 | CCOC(=O)COc1ccc2c(=O)c(Oc3ccc(F)cc3)c(C)oc2c1 | . | -1.9
11 | c1ccc(-n2ncc3c(NCCCn4ccnc4)ncnc32)cc1 | 2.2 | .
12 | CCCN(CCC)C(=O)Cn1ncc2c3ccccc3n(CCC)c2c1=O | 0.04 | .
13 | c1cc2c(cc1-c1csc(-c3nc(-c4ccc5c(c4)OCO5)cs3)n1)OCO2 | 0.89 | .
14 | Cc1nnc(Nc2c(C)n(C)n(-c3ccccc3)c2=O)[nH]c1=O | -1.1 | -1.8
15 | Clc1cccc2nnsc12 | . | -0.1
16 | Cc1ccc(C2=CC(c3cccs3)n3nnnc3N2)cc1C (configuration not stated) | . | -1.1
17 | Cc1c(C(=O)N(Cc2ccco2)C2CCCCC2)sc2nc3n(c(=O)c12)CCCC3 | 1.3 | .
18 | Cc1cc(F)ccc1Nc1nc2ccccc2c2nnc(C)n12 | 0.64 | .
19 | Cc1c(C(=O)N2CCCC2)c(S(=O)(=O)NCC2CCCO2)c(C)n1C (configuration not stated) | 0.64 | .
20 | CCCSc1ncc(Cl)c(C(=O)Nc2nnc(CC(C)C)s2)n1 | 1.3 | -2.2
21 | O=C(CNS(=O)(=O)c1cccs1)Nc1nccs1 | -0.67 | .
22 | CCOC(=O)CSc1nc2ccc(NC(=O)CC(C)C)cc2s1 | 0.07 | -0.73
23 | Cc1nn(CCCC(=O)N2CCN(C3CCCCC3)CC2)c(=O)c2cc3occc3n12 | 0.47 | -1.6
24 | CCCNC(=O)NCc1cccn1Cc1c(C)cc(C)cc1C | -1.4 | .
25 | CC[C@H](CCC(C)[C@H]1CCC2C3CCC4C[C@@H](O)CC[C@]4(C)C3CC[C@@]21C)C(C)C (some centres not stated) | 1.7 | .
26 | COc1ccc(NC(=O)CSc2nc(-c3ccco3)nc3cc(=O)[nH]n23)cc1Cl | 0.64 | .
27 | CCn1cc(CNC(=O)c2cnn3c(C(F)F)cc(-c4ccc(C)cc4)nc23)cn1 | 2.2 | 0.86
28 | CCc1nn(CC(=O)N(CC)CC)c(=O)c2cc3sccc3n12 | 1.9 | -0.55
29 | Cc1onc2c(=O)n(-c3ccccc3)nc(-c3ccccc3)c12 | . | 0.62
30 | Cn1ncc2c(=O)[nH]cnc21 | . | -3.1
31 | CCN1CCN(c2cc(C)nc3nc(-c4ccc(C)cc4)nn23)CC1 | -0.21 | -1.7
32 | Cc1ccc(-c2nnc(N3CCOCC3)c3ccccc23)cc1S(=O)(=O)N1CCN(C)CC1 | . | 0.05
33 | CC1=N[N+](C)=C(C)C1(C)C | . | 15
34 | CNC(=O)C1CCC(Cn2c(=O)c3sccc3n(CC(=O)Nc3ccc4c(c3)OCO4)c2=O)CC1 (configuration not stated) | 1.5 | .
35 | COc1ccccc1NC(=O)N1CCN(c2ccc3nncn3n2)CC1 | . | -1.6
36 | COc1ccc(/C=C/c2nc(C#N)c(NC(C)c3ccccc3)o2)cc1OC (configuration not stated) | 0.96 | 0.31
37 | COc1ccc2cc(CCNC(=O)C(C)(C)C)c(=O)[nH]c2c1 | . | -2.1
38 | CCOc1ccc(S(=O)(=O)[C@H]2CS(=O)(=O)C[C@@H]2N2CCN(c3ccccc3)CC2)cc1 | -1 | -1.3
39 | CCCCOC(=O)Nc1nnc(CC)s1 | 0.29 | 0.2
40 | COc1ccc(-c2noc(-c3cc(-c4ccc5ccccc5c4)n[nH]3)n2)cc1OC | -1.2 | .
41 | Cn1c(=O)c(=O)n(C)c2cc(S(=O)(=O)N3CCCC3c3ccccc3F)ccc21 (configuration not stated) | 0.48 | -2.8
42 | Cc1ccc(C2C3(C#N)C(N)=NC4(OCCO4)C23C#N)cc1 (configuration not stated) | . | 2.1
43 | COc1cccc(-c2nc(=S)c3c([nH]2)Oc2c(O)cccc2C3)c1OC | -0.69 | -3
44 | O=c1ccc(-c2ccc(S(=O)(=O)NCc3cccs3)o2)n[nH]1 | 0.76 | .
45 | COc1ccc2c(c1)CC(NC(=O)NCc1ccccn1)CO2 (configuration not stated) | 1.2 | .
46 | Cc1ccc(C2C(=O)N(C3CCC(C)CC3)CC(=O)N2Cc2ccccc2)cc1 (configuration not stated) | . | -0.9
47 | CN(C(=O)Cn1nnc2sc3c(c2c1=O)CCCC3)C1CCCCC1 | 2.4 | -3.5
48 | Cc1cc(C(=O)O)ccc1-n1c(C)ccc1C | . | -1.1
49 | CN(C1CCCCC1)S(=O)(=O)c1ccc2[nH]c(=O)cc(C(=O)NCCc3ccccc3)c2c1 | . | 2
50 | CC(C)n1c(=O)c2oc3ccccc3c2n(Cc2ccc(F)cc2)c1=O | 3.1 | .

Further results
cpd | smiles | TAR Tat displ | CDC25B CDK2 inh
51 | Cc1cc2c(cc1NC(=O)C1CCC(C)CC1)n(C)c(=O)n2C (configuration not stated) | 0.43 | .
52 | COc1ccccc1OCCCN1C(=O)C(=O)c2cc(Br)cc(C)c21 | 2.7 | -0.03
53 | O=C1C(=O)N(CCCn2ccnc2)C(c2ccco2)/C1=C(\O)c1ccccc1 (configuration not stated) | -0.72 | -1.5
54 | CC(C)c1nc2cccnc2n1CCN1CCNCC1 | -2.4 | .
55 | CCOc1ccc(-c2nc(CSc3nc4ncccc4[nH]3)c(C)o2)cc1OC | 1.8 | .
56 | CC(Sc1nc(-c2ccco2)nc2c1c(=O)n(C)c(=O)n2C)C(=O)O (configuration not stated) | . | -2.5
57 | O=C(Nc1nc2nc(-c3ccccc3)cc(=O)n2[nH]1)c1cccnc1 | 3 | -1.9
58 | Cc1nc2cc(NC(=O)c3ccc(N4C(=O)CCC4=O)cc3)ccc2s1 | . | -0.5
59 | CN(C)C(=O)/C=C/c1ccccc1 | . | -1.7
60 | CCNc1nc(OC)nc(-n2cnc(SCC(=O)OCC)n2)n1 | 1.2 | -0.32
61 | CCS(=O)(=O)N1CCCc2ccc(NS(=O)(=O)c3cccs3)cc21 | 0.45 | .
62 | Cc1noc(/C=C/c2cccs2)c1S(=O)(=O)N1CCC(C(=O)N2CCCCC2)CC1 | 1.5 | .
63 | COc1ccc(Cl)cc1N1C(=O)C2CCCN2C1c1ccccc1F (configuration not stated) | 0.05 | -0.64
64 | COC(=O)c1c(SC)nc2ccccc2c1OCc1ccc(F)cc1 | 0.39 | .
65 | Cn1c(=O)n(CC(=O)N2CCCC2)c(=O)c2cc(S(=O)(=O)NC3CC3)ccc21 | 0.64 | .
66 | CCC1CN(S(=O)(=O)c2cc(-c3cnc(C)o3)ccc2OC)c2cc(Cl)ccc2O1 (configuration not stated) | 1.4 | .
67 | CCN(CC)C(=O)c1c(NC(=O)c2cccs2)sc2c1CCC(C(C)(C)C)C2 (configuration not stated) | . | -1.7
68 | O=C(Cn1ncc2c([nH]c3ccccc32)c1=O)NCc1ccc2c(c1)OCO2 | 1.9 | .
69 | CCCOC(=O)C1=C(C)NC2=C(C(=O)CC(C)(C)C2)C1c1cccc(Cl)c1 (configuration not stated) | -1.7 | -1.2
70 | COc1ccc(-c2nc(NCCc3ccsc3)c3ccccc3n2)cc1 | -0.06 | .
71 | CC(=O)N1c2ccc(S(=O)(=O)N3CCC(C(=O)N4CCC(C)CC4)CC3)cc2CC1C (configuration not stated) | 2.9 | .
72 | Cc1sc(C)c(S(=O)(=O)N2CCN(C(=O)c3ccco3)CC2)c1-c1ccno1 | -1.2 | .
73 | CSc1ccccc1NC(=O)CN1C(=O)c2ccccc2S1(=O)=O | . | -2.1
74 | O=C(NCCCN1CCC(N2CCCCC2)CC1)C1=Cc2ccccc2OC1 | 0.88 | .
75 | Cc1cc(C)c2nc(Nc3nc(O)cc(=O)[nH]3)nc(C)c2c1 | 4.7 | 1.9

Six structures already listed, sorted by molar mass, falling.
cpd | smiles | TAR Tat displ | CDC25B CDK2 inh
17 | Cc1c(C(=O)N(Cc2ccco2)C2CCCCC2)sc2nc3n(c(=O)c12)CCCC3 | 1.3 | .
46 | Cc1ccc(C2C(=O)N(C3CCC(C)CC3)CC(=O)N2Cc2ccccc2)cc1 (configuration not stated) | . | -0.9
68 | O=C(Cn1ncc2c([nH]c3ccccc32)c1=O)NCc1ccc2c(c1)OCO2 | 1.9 | .
43 | COc1cccc(-c2nc(=S)c3c([nH]2)Oc2c(O)cccc2C3)c1OC | -0.69 | -3
50 | CC(C)n1c(=O)c2oc3ccccc3c2n(Cc2ccc(F)cc2)c1=O | 3.1 | .
21 | O=C(CNS(=O)(=O)c1cccs1)Nc1nccs1 | -0.67 | .

Single records, as listed above:
Record of CCCOC(=O)C1=C(C)NC2=C(C(=O)CC(C)(C)C2)C1c1cccc(Cl)c1 (configuration not stated) → TAR Tat displ: -1.7; CDC25B CDK2 inh: -1.2
Record of O=C1C(=O)N(CCCn2ccnc2)C(c2ccco2)/C1=C(\O)c1ccccc1 (configuration not stated) → TAR Tat displ: -0.72; CDC25B CDK2 inh: -1.5
Record of COc1ccc(OC)c(C2=NS(=O)(=O)N(C)C(C(=O)N3CCOCC3)=C2)c1 → TAR Tat displ: 1.2; CDC25B CDK2 inh: -2

Next section.
cpd | smiles | TAR Tat displ | CDC25B CDK2 inh
76 | Cc1nn2c3c(nnc2c1-c1ccccc1)C(=O)CC(C)C3 (configuration not stated) | 1.1 | 1.5
77 | CCC1CN(C(=O)C2CCN(S(=O)(=O)c3cccnc3)CC2)c2ccccc2S1 (configuration not stated) | 1.3 | .
78 | CN1CCc2c(sc(-n3cccc3)c2CNC(=O)Nc2ccccc2F)C1 | -0.73 | .
79 | Cn1cnc(S(=O)(=O)Nc2ccc(S(N)(=O)=O)cc2)c1 | 1.1 | .
80 | O=c1c(Nc2cccnc2)c(-c2ccccc2)c1=O | 2.4 | .
81 | O=C(NC1CC1)c1ccc(CS(=O)c2ccc(Br)cc2)o1 (configuration not stated) | 1 | .
82 | O=C(Nc1cccc(F)c1)NC(c1ccc(F)cc1)c1nnc(-c2ccccc2)o1 (configuration not stated) | -0.1 | .
83 | O=C1Cc2cc(S(=O)(=O)N3CCCCC3)ccc2N1 | 1.4 | .
84 | COc1ccc(NS(=O)(=O)c2ccc3[nH]c4c(c3c2)CCCC4)cc1OC | 0.22 | .
85 | COC(=O)c1ccc(C2CC(=O)Nc3c2c(C)nn3-c2nncc(-c3ccc(Cl)cc3)n2)cc1 (configuration not stated) | 0.49 | -1.7
86 | Cn1nc(C(=O)N2CCc3ccccc32)c2c1-c1ccccc1S(=O)(=O)C2 | 0.26 | -1.9
87 | CC1(C)C(=O)OC(c2ccco2)C2(CCCCC2)C1=O (configuration not stated) | . | -1
88 | CCN(CC)CCNC(=O)c1cc2c(s1)-c1ccccc1SC2 | -0.02 | -0.4
89 | CCCOC(=O)C1=C(C)NC2=C(C(=O)CC(C)(C)C2)C1c1ccc(OC)c(Br)c1 (configuration not stated) | 1.4 | 0.71
90 | Fc1cccc(CN2CCN(Cc3cccnc3)CC2)c1 | 1.1 | 0.91
91 | O=C(c1cnn2c(C(F)(F)F)cc(-c3ccco3)nc12)N1CCCC1c1ccco1 (configuration not stated) | 1.7 | -1.3
92 | Cc1cc(C)n(CCc2nc3c4ccccc4nc(NCCc4ccccc4)n3n2)n1 | -0.36 | -0.44
93 | CCOCCCNc1nc(Nc2ccc(Cl)cc2)c2cnn(C)c2n1 | 1.3 | .
94 | CCCCCCSc1nc(O)cc(=O)[nH]1 | 0.95 | -0.96
95 | O=C1c2ccccc2C(Nc2ccc3c(c2)OCCO3)N1c1ccc(Cl)cn1 (configuration not stated) | -0.15 | -1.5
96 | CC(C)(C)c1ccc(OS(=O)(=O)c2ccc(Oc3c(Cl)cccc3[N+](=O)[O-])cc2)cc1 | . | -1.8
97 | Cc1nn2c3c(cnc2c1-c1ccccc1)C(=O)CC(c1cccc(Cl)c1)C3 (configuration not stated) | -1.1 | -1.8
98 | COc1ccc(Nc2cc(C)nc(SC)n2)cc1OC | 1.5 | -0.98
99 | CCNc1ncnc2c1cnn2-c1cc(Cl)ccc1C | 0.05 | .
100 | Cc1nc(NC2CCCCC2)c2sc3nc4c(cc3c2n1)COC(C)(C)C4 | . | -1.5
101 | COc1ccc(S(=O)(=O)Nc2nc3c(s2)C(=O)CC(C)(C)C3)cc1 | 0.6 | 1
102 | COc1ccc(OC)c(NC(=O)N2CCSc3ccccc32)c1 | 1.5 | .
103 | O=C1N(c2ccc(F)cc2)C2CS(=O)(=O)CC2N1c1cccc(Br)c1 (configuration not stated) | 1 | -1.1
104 | CC1CCCCC1NC(=O)Cn1ncc2c(=O)oc3ccccc3c21 (configuration not stated) | 1.6 | -1.5
105 | COc1cccc(-c2noc(N3CCN(Cc4ccccc4)CC3)n2)c1 | 1.2 | .
106 | CCCc1cc(=O)oc2c(C)c(OCC(C)=O)ccc12 | . | -1.2
107 | O=C(CSc1nc2ncccc2o1)Nc1cccc(F)c1 | -0.07 | .
108 | O=C(CC1CCCCC1)c1c(O)c2ccccc2oc1=O | . | -2.4
109 | COCCCNC(=O)N1Cc2c(sc3c2CCCC3)-n2cccc2C1C(C)C (configuration not stated) | 0.67 | .
110 | CCCc1nn2c(=O)cc(CSc3nnc(-c4ccccc4)o3)nc2s1 | 1.3 | -0.22
